Source: PubChem
FGF22 binding = shifts melting point of recombinant human FGF22; AID 651658; recombinant FGF22 thermal shift, SYPRO orange fluorescence; percent of sucrose octasulfate shift, DMSO zero; 340,000 tested, 1.5% active; Q9HCT0; calls only at 9.99 µM;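 active = melting point raised past a set limit in the mean and every replicate; three in four hits are not shown here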
Target sequence (Q9HCT0 whole entry, looked up): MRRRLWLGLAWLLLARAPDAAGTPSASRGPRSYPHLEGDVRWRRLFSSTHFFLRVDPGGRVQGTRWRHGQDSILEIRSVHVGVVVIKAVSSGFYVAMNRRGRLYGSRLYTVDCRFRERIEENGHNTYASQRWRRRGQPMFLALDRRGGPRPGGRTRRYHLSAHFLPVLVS
Ecoli rRNA inh = inhibits bacterial ribosomal RNA function over humanized ribosomes; GFP signal change (wild-type ribosome), % (no concentration beside the values); E. coli WT GFP vs humanized-ribosome RFP mutants, fluorescence, 24 h; stronger effect = lower value; DMSO median 0, no signal -100; AID 720706; 350,000 tested, 1.6% active;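 active = significant combined selectivity score with lowered wild-type GFP, culture density cut under 30%, mutant RFP and density less affected; inactive = any of these conditions unmet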; also: one replicate is shown; some compounds called inactive have numbers as strong as hits
Ecoli rRNA inh OD600 = second read-out of Ecoli rRNA inh, no call of its own (marks repeat the call); OD600 change, %; measured here: OD600 growth;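 optical density of the mix in the first replicate; 0 = DMSO median and -100 = no signal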
Ecoli rRNA inh RFP = second read-out of Ecoli rRNA inh, no call of its own (marks repeat the call); RFP signal change, %; measured here: RFP humanized mutant strains;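 first replicate; 0 = DMSO median and -100 = no signal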
* = called active by the depositor; i = inactive. Some of the compounds tested. The share of hits here may be higher or lower than overall.

FGF22 binding	Ecoli rRNA inh	Ecoli rRNA inh OD600	Ecoli rRNA inh RFP	Structure
i	2	5	2.5	C[C@H]1CN([C@@H](C)CO)C(=O)CCCn2cc(nn2)CO[C@@H]1CN(C)Cc1ccccc1C(=O)O
i	1	4	3.9	C[C@@H]1CN([C@@H](C)CO)C(=O)c2cc(C#CC3CCCCC3)cnc2O[C@@H]1CN(C)Cc1cncnc1
i	-2	-11	1.8	CC(C)CC#Cc1ccc2c(c1)O[C@@H](CN(C)C(=O)c1ccccc1)[C@@H](C)CN([C@@H](C)CO)S2(=O)=O
i	5	1	1.0	C[C@H](CO)N1C[C@H](C)[C@@H](CN(C)C)Oc2cc(-c3ccncc3)ccc2S1(=O)=O
i	-10	-19	42	COc1ccc(NC(=O)N[C@H]2CC[C@@H](CCNS(=O)(=O)c3cccc(Cl)c3)O[C@H]2CO)cc1
i	3	0	-1.8	O=C(C[C@H]1C[C@H]2c3cc(NC(=O)CC4CC4)ccc3O[C@H]2[C@H](CO)O1)NCc1cc(F)ccc1F
i	3	11	1.6	COCC(=O)Nc1ccc2c(c1)C(=O)N(C)[C@H]1CC[C@@H](CC(=O)NCCCN(C)C)O[C@H]1CO2
i	-1	-16	5.4	CCCNC(=O)N1CC2(CN(Cc3ccc(F)cc3)C2)c2c([nH]c3cc(OC)ccc23)[C@@H]1CO
i	2	3	-0.2	COc1cccc(S(=O)(=O)N(C)C[C@H]2OCc3ccccc3-c3c(n(C)c4ccccc34)C(=O)N([C@H](C)CO)C[C@H]2C)c1
i	-1	0	0.3	COCC(=O)Nc1ccc2c(c1)OC[C@@H](C)N(CC1CCCCC1)C[C@H](C)[C@H](OC)CN(C)C2=O
i	-3	11	1.2	O=C(NC1CCCC1)N1CCCCN2[C@@H](CO)[C@H](c3ccc(-c4cccnc4)cc3)[C@@H]2C1
i	4	-3	-1.4	Cc1noc(C)c1NC(=O)N(C)C[C@@H]1Oc2ncc(C#CC(C)C)cc2C(=O)N([C@H](C)CO)C[C@H]1C
i	2	13	-3.0	O=C(Cc1ccccn1)N[C@@H]1CC[C@@H](CC(=O)N2CCCCC2)O[C@@H]1CO
i	4	13	-0.3	COc1ccc(S(=O)(=O)Nc2ccc3c(c2)C(=O)N([C@H](C)CO)C[C@H](C)[C@H](CN(C)S(=O)(=O)c2ccc(Cl)cc2)OCCCC[C@@H](C)O3)cc1
i	-3	-3	0.6	CN1[C@@H]2c3ccc(-c4ccccc4)c(=O)n3C[C@@H]2[C@@H](CO)[C@@H]1C(=O)Nc1ccccc1
i	2	2	-0.5	C[C@@H]1CN([C@@H](C)CO)C(=O)Cc2cc(NC(=O)c3ccncc3)ccc2O[C@H]1CN(C)C(=O)Nc1ccccc1
i	1	-7	0.5	Cc1noc(C)c1S(=O)(=O)N(C)C[C@H]1Oc2ccc(NC(=O)Nc3ccc4c(c3)OCO4)cc2CC(=O)N([C@@H](C)CO)C[C@H]1C
i	0	3	2.4	C[C@H]1CN([C@@H](C)CO)C(=O)c2cc(NS(=O)(=O)c3cccs3)ccc2O[C@H]1CN(C)C(=O)NC1CCCCC1
i	1	2	-4.4	Cc1ccc(S(=O)(=O)N(C)C[C@@H]2OCCCC[C@H](C)Oc3ccc(NC(=O)Nc4ccc(C(F)(F)F)cc4)cc3C(=O)N([C@@H](C)CO)C[C@H]2C)cc1
i	1	-1	-0.9	C[C@@H]1CN([C@@H](C)CO)C(=O)c2cc(C3=CCCCC3)cnc2O[C@@H]1CN(C)C(=O)Cc1ccncc1
i	8	7	0.9	CC(C)NC(=O)N(C)C[C@@H]1OCCCC[C@@H](C)Oc2ccc(NS(=O)(=O)c3cn(C)cn3)cc2C(=O)N([C@@H](C)CO)C[C@H]1C
i	-3	-9	2.4	C[C@H]1CCCCO[C@H](CN(C)Cc2ccccc2)[C@@H](C)CN([C@@H](C)CO)C(=O)c2cc(NC(=O)Nc3ccc4c(c3)OCO4)ccc2O1
i	3	8	-4.6	COc1ccc2c3c([nH]c2c1)[C@@H](CO)N(C(=O)CN1CCOCC1)CC31CCN(C(=O)NC(C)C)CC1
i	-1	1	1.0	C[C@H]1CN([C@@H](C)CO)C(=O)Cc2cc(NC(=O)Nc3cccc4ccccc34)ccc2O[C@@H]1CN(C)S(=O)(=O)c1ccccc1
i	0	0	2.5	C[C@H](CO)N1C[C@H](C)[C@H](CN(C)S(=O)(=O)c2ccccc2)Oc2ccc(NC(=O)CCN3CCOCC3)cc2C1=O

Following part:
FGF22 binding	Ecoli rRNA inh	Ecoli rRNA inh OD600	Ecoli rRNA inh RFP	Structure
i	-2	5	-1.6	C[C@@H]1CCCCO[C@H](CN(C)S(=O)(=O)c2ccccc2)[C@@H](C)CN([C@H](C)CO)C(=O)c2cc(NC(=O)c3ccncc3)ccc2O1
i	2	8	-4.3	Cc1noc(C)c1NC(=O)Nc1ccc2c(c1)C(=O)N([C@H](C)CO)C[C@H](C)[C@H](CN(C)C(=O)CCCN(C)C)OCCCC[C@H](C)O2
i	4	7	-0.7	CO[C@@H]1CN(C)C(=O)c2cc(NC(=O)C3CCOCC3)ccc2OC[C@H](C)N(Cc2cccnc2)C[C@@H]1C
i	4	-3	1.3	C[C@@H]1CN([C@@H](C)CO)C(=O)c2cc(C3=CCCCC3)cnc2O[C@@H]1CN(C)C(=O)c1ccc(F)cc1
i	-1	-4	7.0	C[C@H]1CN([C@@H](C)CO)C(=O)c2cc(NC(=O)CCC(F)(F)F)ccc2O[C@H]1CN(C)Cc1ccc(-c2ccccc2)cc1
i	-1	1	-1.0	COC(=O)C[C@@H]1CC[C@H]2[C@@H](COc3ccc(NS(=O)(=O)c4ccc(C)cc4)cc3C(=O)N2C)O1
i	1	-1	0.9	COc1cccc(S(=O)(=O)Nc2ccc3c(c2)OC[C@H](C)NC[C@@H](C)[C@H](OC)CN(C)C3=O)c1
i	4	3	-3.0	O=C(NC1CCCCC1)N[C@@H]1C=C[C@@H](CC(=O)N2CCOCC2)O[C@@H]1CO
i	-1	4	-1.5	Cc1ccccc1-c1cnc2c(c1)C(=O)N([C@@H](C)CO)C[C@@H](C)[C@@H](CN(C)C(=O)c1ccncc1)O2
i	-5	4	3.4	COc1ccc(NC(=O)N[C@@H]2CC[C@H](CCNC(=O)Nc3cc(F)ccc3F)O[C@@H]2CO)cc1
i	-5	5	-5.7	COc1ccc(-c2cnc3c(c2)C(=O)N([C@H](C)CO)C[C@H](C)[C@H](CN(C)S(=O)(=O)c2ccccc2)O3)cc1
i	-2	-15	2.2	COc1cccc(NC(=O)N(C)C[C@H]2Oc3cc(C#Cc4ccncc4)ccc3S(=O)(=O)N([C@@H](C)CO)C[C@H]2C)c1
i	-4	-8	3.9	COc1ccc(S(=O)(=O)N(C)C[C@H]2OCCCC[C@@H](C)Oc3ccc(NS(=O)(=O)c4cn(C)cn4)cc3C(=O)N([C@H](C)CO)C[C@H]2C)cc1
i	0	-8	1.0	C[C@H]1CN([C@@H](C)CO)C(=O)c2cc(C#CC3CCCCC3)cnc2O[C@H]1CN(C)C(=O)c1ccncc1
i	5	6	-1.8	CC(C)NC(=O)Nc1ccc2c(c1)C(=O)N([C@H](C)CO)C[C@H](C)[C@H](CN(C)C(=O)Nc1ccccc1)OCCCC[C@@H](C)O2
i	0	4	-0.5	COc1ccc(C#Cc2ccc([C@H]3[C@H]4CN(C(=O)Nc5ccc(F)cc5)CCCCN4[C@H]3CO)cc2)cc1
i	-3	-8	-3.4	O=C(N[C@@H]1CC[C@@H](CCNS(=O)(=O)c2cccc(Cl)c2)O[C@@H]1CO)c1ccccc1
i	3	5	3.8	O=C([C@@H]1[C@@H](CO)[C@@H]2Cn3c(cccc3=O)[C@@H]2N1CC1CCCC1)N1CCOCC1
i	0	-2	2.5	CN(C)C(=O)[C@@H]1[C@@H](CO)[C@@H]2Cn3c(ccc(C4=CCCC4)c3=O)[C@@H]2N1C(=O)Cc1cccnc1
i	4	7	-2.1	Cc1noc(C)c1NC(=O)Nc1cccc2c1O[C@@H](CN(C)C(=O)Nc1c(C)noc1C)[C@H](C)CN([C@H](C)CO)C2=O
i	0	11	-0.3	C[C@@H]1CN([C@H](C)CO)C(=O)c2cc(NS(=O)(=O)c3ccccc3)ccc2O[C@@H]1CN(C)C(=O)Nc1ccc(F)cc1
i	-1	0	-0.9	C[C@@H]1CCCCO[C@H](CN(C)C(=O)Nc2ccc(C(F)(F)F)cc2)[C@H](C)CN([C@H](C)CO)C(=O)c2cc(NS(=O)(=O)c3cccs3)ccc2O1
i	10	-6	4.4	COc1ccc2cc(/C=N/NC(=O)CN(c3ccccc3OC)S(=O)(=O)c3ccccc3)c(Cl)nc2c1
i	-2	10	-2.3	CCC(=O)N(C)C[C@@H]1Oc2ncc(C#Cc3ccccc3)cc2C(=O)N([C@H](C)CO)C[C@@H]1C
i	-2	-1	-1.0	CO[C@H]1CN(C)C(=O)c2ccc(NC(=O)C3CC3)cc2OC[C@@H](C)N(C(=O)C2CCCCC2)C[C@@H]1C

(list continues)
FGF22 binding	Ecoli rRNA inh	Ecoli rRNA inh OD600	Ecoli rRNA inh RFP	Structure
i	3	0	-1.0	C[C@@H]1CCCCO[C@@H](CN(C)C(=O)c2ccccc2)[C@@H](C)CN([C@@H](C)CO)C(=O)c2cc(NC(=O)Nc3cccc4ccccc34)ccc2O1
i	-1	-12	-0.5	C[C@@H]1CN([C@@H](C)CO)C(=O)Cc2cc(NC(=O)CCC(F)(F)F)ccc2O[C@H]1CN(C)S(=O)(=O)c1ccc(Cl)cc1
i	-60	-76	-13	Cc1cccc(-c2ccc([C@@H]3[C@H](CO)N4CCCCN(C(=O)c5ccc6c(c5)OCO6)C[C@@H]34)cc2)c1
i	-1	-4	0.0	C[C@@H]1CN([C@H](C)CO)C(=O)c2cc(NC(=O)CCC(F)(F)F)ccc2O[C@@H](C)CCCCO[C@H]1CN(C)C(=O)C1CCCCC1
i	2	4	1.1	C[C@H](NC(=O)[C@H]1[C@H](CO)[C@H]2Cn3c(ccc(C4=CCCCC4)c3=O)[C@@H]1N2)c1ccccc1
i	4	-13	2.3	O=C(c1cnccn1)N1CC(=O)N2[C@H](CO)[C@@H](c3ccc(/C=C/c4ccccc4)cc3)[C@@H]2C1
i	2	-3	0.5	C[C@H](CO)N1C[C@H](C)[C@H](CN(C)CC2CC2)Oc2ccc(NC(=O)Nc3ccccc3)cc2CC1=O
i	4	6	-0.8	Cc1cc(C(=O)Nc2cccc3c2O[C@@H](CN(C)S(=O)(=O)c2cn(C)cn2)[C@H](C)CN([C@@H](C)CO)C3=O)n(C)n1
i	-1	5	-1.5	COc1ccccc1C(=O)N1C[C@H]2[C@@H](c3ccccc31)[C@@H](CO)N2C(=O)C1CCOCC1
i	-3	7	-1.9	C/C=C/c1ccc([C@@H]2[C@@H](CO)N(CCC(F)(F)F)C23CN(C(=O)CC2CC2)C3)cc1
i	3	3	-1.9	C[C@@H]1CN([C@H](C)CO)C(=O)c2cc(NC(=O)CCC(F)(F)F)ccc2O[C@@H](C)CCCCO[C@H]1CN(C)C(=O)NC1CCCCC1
i	-1	3	-1.2	O=S(=O)(NCC[C@@H]1CC[C@@H](NS(=O)(=O)c2ccccc2Cl)[C@@H](CO)O1)c1ccc(Cl)cc1
i	0	4	-2.8	C[C@@H]1CN([C@H](C)CO)C(=O)c2ccccc2-c2ccccc2CO[C@H]1CN(C)C(=O)c1ccncc1
i	2	10	0.0	Cc1ccc(S(=O)(=O)N(C)C[C@@H]2Oc3ccc(NC(=O)Cn4cnnn4)cc3C(=O)N([C@H](C)CO)C[C@H]2C)cc1
i	-1	-12	-2.0	CC(C)C#Cc1ccc2c(c1)O[C@H](CN(C)C(=O)CC1CC1)[C@@H](C)CN([C@H](C)CO)S2(=O)=O
i	-1	1	2.1	C[C@@H]1CN([C@@H](C)CO)C(=O)c2cc(NC(=O)Cn3cnnn3)ccc2O[C@H]1CN(C)S(=O)(=O)c1cccs1
i	2	7	-3.6	COc1ccc(S(=O)(=O)N(C)C[C@H]2Oc3c(NC(=O)C4CCOCC4)cccc3C(=O)N([C@H](C)CO)C[C@@H]2C)cc1

Entries above with a CF3 group, in the order listed:
FGF22 binding	Ecoli rRNA inh	Ecoli rRNA inh OD600	Ecoli rRNA inh RFP	Structure
i	1	2	-4.4	Cc1ccc(S(=O)(=O)N(C)C[C@@H]2OCCCC[C@H](C)Oc3ccc(NC(=O)Nc4ccc(C(F)(F)F)cc4)cc3C(=O)N([C@@H](C)CO)C[C@H]2C)cc1
i	-1	-4	7.0	C[C@H]1CN([C@@H](C)CO)C(=O)c2cc(NC(=O)CCC(F)(F)F)ccc2O[C@H]1CN(C)Cc1ccc(-c2ccccc2)cc1
i	-1	0	-0.9	C[C@@H]1CCCCO[C@H](CN(C)C(=O)Nc2ccc(C(F)(F)F)cc2)[C@H](C)CN([C@H](C)CO)C(=O)c2cc(NS(=O)(=O)c3cccs3)ccc2O1
i	-1	-12	-0.5	C[C@@H]1CN([C@@H](C)CO)C(=O)Cc2cc(NC(=O)CCC(F)(F)F)ccc2O[C@H]1CN(C)S(=O)(=O)c1ccc(Cl)cc1
i	-1	-4	0.0	C[C@@H]1CN([C@H](C)CO)C(=O)c2cc(NC(=O)CCC(F)(F)F)ccc2O[C@@H](C)CCCCO[C@H]1CN(C)C(=O)C1CCCCC1
i	-3	7	-1.9	C/C=C/c1ccc([C@@H]2[C@@H](CO)N(CCC(F)(F)F)C23CN(C(=O)CC2CC2)C3)cc1
i	3	3	-1.9	C[C@@H]1CN([C@H](C)CO)C(=O)c2cc(NC(=O)CCC(F)(F)F)ccc2O[C@@H](C)CCCCO[C@H]1CN(C)C(=O)NC1CCCCC1
